Bioassay records (PubChem)
CSC inhib – cancer stem cell inhibition. cancer stem cell-like cells viability, luminescence. inhibition, % at 7.5 µM. actives 1.1% (n = 300,000);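 active means mean at 75% or more and at least half the replicates too; tested in HMLE shEcad cells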;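 further: 0% = median of negative and 100% = median of positive control wells; the first replicate is given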
eIF4H FP inh – inhibitors of RNA binding by human eIF4H; Q15056; AID 2012; eIF4H fluorescence polarization binding assay; inhibition, % at 35 µM; actives 0.94% (n = 290,000);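 active means 50% or more with normal probe brightness, or confirmed in later tests; about a fifth of its hits are not listed in these tables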;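 further: calls also rest on retests at 20 µM and on dose response follow-up; 0% = protein and probe with vehicle and 100% = probe without protein; strong numbers were not always called active; many hits fall short of the cut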
PABP FP inh – blocks human PABP binding to poly(A) RNA; fluorescence polarization; AID 2014; P11940; actives 1% (n = 290,000); inhibition, % at 35 µM;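 active means 50% or more with normal probe brightness, or confirmed in later tests; about a fifth of its hits are not listed in these tables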;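 further: calls also rest on retests at 20 µM and on dose response follow-up; controls were probe without protein and protein plus probe with vehicle; some compounds called inactive have numbers as strong as hits; many hits fall short of the cut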
Target sequence (P11940 whole entry, looked up): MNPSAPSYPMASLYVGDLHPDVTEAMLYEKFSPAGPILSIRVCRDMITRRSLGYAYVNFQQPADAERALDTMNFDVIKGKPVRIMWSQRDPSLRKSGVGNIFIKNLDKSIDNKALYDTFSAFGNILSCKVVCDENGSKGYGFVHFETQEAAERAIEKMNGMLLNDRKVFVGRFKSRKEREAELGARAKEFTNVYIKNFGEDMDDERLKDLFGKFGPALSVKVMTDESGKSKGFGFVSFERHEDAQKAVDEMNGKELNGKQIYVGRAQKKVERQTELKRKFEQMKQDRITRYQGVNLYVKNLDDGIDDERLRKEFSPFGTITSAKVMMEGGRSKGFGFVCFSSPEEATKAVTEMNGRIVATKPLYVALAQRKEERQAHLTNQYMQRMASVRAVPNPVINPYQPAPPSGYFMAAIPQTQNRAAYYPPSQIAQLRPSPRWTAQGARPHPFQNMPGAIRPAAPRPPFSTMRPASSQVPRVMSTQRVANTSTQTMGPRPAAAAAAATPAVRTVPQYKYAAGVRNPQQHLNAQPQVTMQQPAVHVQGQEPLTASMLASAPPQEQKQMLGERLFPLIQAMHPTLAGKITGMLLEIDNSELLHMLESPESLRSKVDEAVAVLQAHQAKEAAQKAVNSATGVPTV
HIV Env fusion – blocks HIV Env-driven cell-cell fusion; HeLa-JRFL Env/CEM21 cell fusion, luciferase; inhibition, % at 12.3 µM; actives 1.1% (n = 360,000); AID 651610;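 active means mean replicate inhibition score of at least 50 and every replicate individually at or above 50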;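 further: 0% = plate neutral controls and 100% = maraviroc near 300 nM; one replicate is shown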
UUG fidelity – modulators of start codon recognition fidelity in yeast; S. cerevisiae UUG-firefly luciferase reporter, luminescence/redox ratio; activity score, % at 18.7 µM; actives 0.13% (n = 350,000);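 active means replicate mean at a twofold rise or more, about +100% in these data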;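 further: firefly luciferase made from a UUG start codon reports start codon fidelity; reporter light over untreated wells divided by growth signal over untreated wells; some hits fall short of that in this replicate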
Rce1 inh – blocks yeast Ras-converting enzyme; Q03530; yeast membranes, quenched prenylated peptide cleavage fluorescence; calls only; actives 0.27% (n = 290,000);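 active means fall in fluorescence gain of 50% or more versus controls, with final raw signal at or below 3038400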;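 further: plate controls were neutral control wells for no effect and wells lacking membranes for full effect; tested at 10 µM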
MT1-MMP act inh – blocks activation of human MT1-MMP; P50281; HT1080 RFP-PRO-GFP cells, GFP/RFP ratio fluorescence, overnight; percent of plate control window, DMSO zero; GFP/RFP ratio change, % at 20 µM; actives 0.061% (n = 360,000); AID 651647;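 active means GFP/RFP ratio change of at least 30% with cell ATP level not reduced by more than half and red fluorescence within 50% of control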; further: strong numbers were not always called active
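Test system: HT1080 RFP-PRO-GFP cells; Benchmarks: DMSO and RFP-L50D-GFP cell wells; Timing: cells overnight before dosing, compound overnight, 37 °C, 5% CO2; Compound: one 20 µM compound dose with 1% DMSO; Read-out: GFP/RFP fluorescence ratio.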
MT1-MMP act inh RFP – recorded beside MT1-MMP act inh, whose call it bears; RFP signal change, %; measured here: RFP expression control read;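 0 = vehicle wells; hits needed this value within 50% of zero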
An asterisk follows results filed as active; i = inactive; . = no result given.

SMILES	Rce1 inh	PABP FP inh	UUG fidelity	eIF4H FP inh	MT1-MMP act inh	HIV Env fusion	CSC inhib	MT1-MMP act inh RFP
O=C(O)c1ccccc1CSc1nnnn1-c1ccccc1	i	-8	-14	-4	0	11	-9	0
Cc1cc(NC(=O)CSc2nccn2-c2ccc([N+](=O)[O-])cc2)no1	i	6	-14	-14	5	1	-1	-1
COc1ccc(NCc2nnc(SCC(=O)NCc3ccco3)n2-c2ccccc2OC)cc1	i	-8	-19	-4	-1	.	-11	-4
O=C(CN1C(=O)NC2(CCCC2)C1=O)Nc1ccc(Cl)cc1C(F)(F)F	.	-7	-15	-18	2	11	-4	4
CC1Cc2ccccc2N1C(=O)COC(=O)CNC(=O)c1ccc(Br)o1 (stereo not given)	i	-4	-10	-3	-1	-48	6	0
CC(=O)Nc1ccc2nsnc2c1	i	-6	-20	-1	-3	-18	-9	6
C#CCCCCCCC#CCN(C)C	i	8	.	11	4	-4	5	2
COC(=O)c1cn(Cc2ccc(C(F)(F)F)cc2)cc(F)c1=O	i	17	-18	-3	0	-5	6	-3
O=C(Nc1ccc(N2CCCCC2)cc1)C(Cl)c1ccccc1 (stereo not given)	.	6	.	3	-1	-20	-10	1
Cc1ccc(CNC(C)c2ccccc2)cc1 (stereo not given)	i	5	-13	5	7	-14	-1	5
O=C(NNc1cccc(Cl)n1)Nc1ccccc1F	i	-12	.	1	-1	-8	-1	3
CC(C)CN(C(=O)CSc1nc(-c2ccccc2)cn1N)c1c(N)n(Cc2ccccc2)c(=O)[nH]c1=O	i	.	-4	.	1	-62	-6	8
O=S(=O)(NCCc1csc(-c2cccnc2)n1)c1cccs1	i	-20	-3	-3	-2	24	-1	-2
Cc1nnc(NC(=O)CSc2ncnc3scc(-c4ccccc4)c23)s1	i	8	-12	-5	1	-63	40	3
COc1cccc(C(=O)NNC(=O)CCc2ccccc2)c1	i	3	-9	4	1	14	-14	4
CCS(=O)(=O)N1Cc2ccccc2CC1C(=O)Nc1nc2ccc(C)cc2s1 (stereo not given)	i	-4	-18	5	-1	.	19	-8
Cc1csc(NC(=O)C2C3C=CC(O3)C2C(=O)O)n1 (stereo not given)	i	11	-15	2	1	-60	5	4
NC(=O)CSc1nnc(-c2cccnc2)n1CCc1ccccc1	i	5	-17	-7	-2	-40	-5	3
O=C(c1cc(COc2cccc(C(F)(F)F)c2)on1)N1C[C@H]2CC[C@H]1C2	i	-4	0	-2	0	.	2	-7
CN(CC(=O)Nc1ccc(F)cc1)C(=O)c1ccc(-c2ccc(Cl)cc2)o1	i	0	15	-13	0	-21	13	-1
Cc1ccc(NC(=O)COC(=O)C2C3CC4OC(=O)C2C4C3)cc1Cl (stereo not given)	i	4	-5	2	7	6	-3	2
COc1ccc(N2CCN(S(=O)(=O)c3ccc4c(c3)NC(=O)C(C)S4)CC2)cc1 (stereo not given)	i	-3	3	6	-2	2	-16	-28
Cc1cc(Cl)c(S(=O)(=O)Nc2ccc3c(c2)OCO3)cc1OCC(N)=O	i	1	-11	0	4	7	-3	3
CCc1sc(C(=O)Nc2ncccc2O)cc1C	i	-5	-61	6	5	17	.	1
Cn1c(=O)c2cc(NC(=O)NCCc3cccs3)ccc2n1Cc1cccc(C(F)(F)F)c1	.	.	-17	.	-4	-7	.	-20
S=c1[nH]cc(-c2ccc(Cl)cc2)n1Cc1ccccc1	i	-6	-17	-4	6	-3	-2	-2
Cn1c(=O)c2c([nH]c(=O)n2C)n(Cc2ccccc2)c1=O	i	.	-6	.	3	-16	-10	2
Cc1cc(C)c2[nH]c(=O)c(CN(CC3CCCO3)C(=O)c3cnccn3)cc2c1 (stereo not given)	i	-6	13	-2	11	.	-4	-4
O=C1CC(N2CCN(c3ccccn3)CC2)C(=O)N1CC(c1ccccc1)c1ccccc1 (stereo not given)	i	5	-9	-4	4	18	-9	-5
Cc1ccc(S(=O)(=O)CCC(=O)OCC(=O)N(C)Cc2ccccc2)cc1	.	.	-16	.	1	4	.	5

Look-ups from the results shown.
O=C(O)c1ccccc1CSc1nnnn1-c1ccccc1 @ MT1-MMP act inh RFP: 0
COc1cccc(C(=O)NNC(=O)CCc2ccccc2)c1 @ PABP FP inh: 3

(list continues)
SMILES	Rce1 inh	PABP FP inh	UUG fidelity	eIF4H FP inh	MT1-MMP act inh	HIV Env fusion	CSC inhib	MT1-MMP act inh RFP
Cc1ccc(S(=O)(=O)NCC(=O)N(CC(=O)NC2CCCC2)c2ccc3c(c2)OCCO3)cc1	i	-6	.	2	-3	.	.	-4
CCn1cc(C(=O)N(CCCN2CCOCC2)Cc2ccco2)c(=O)c2ccc(C)nc21	i	-5	15	-1	6	.	-2	0
O=c1[nH]c2cc([N+](=O)[O-])cc(Cl)c2c2ccccc12	.	.	-14	.	-3	1	.	0
c1ccc(COc2ccc(-c3cc4nc(NCCOc5ccccc5)ccn4n3)cc2)cc1	.	.	2	.	-1	43*	.	-15
CCN(C(=S)NCCOC)c1cccc2ccccc12	i	2	.	-5	0	7	5	2
COc1cc(OC)cc(Oc2ccc(S(=O)(=O)N3CCCCC3)cc2[N+](=O)[O-])c1	i	-5	-4	-1	-4	-11	-1	-6
Cn1c(SCC(N)=O)nnc1C1CCN(C(=O)NC2CCCCC2)CC1	i	8	-3	2	5	-42	11	6
CCOc1ccc(S(=O)(=O)N2CCCC(C(=O)NC3CCCC3)C2)cc1 (stereo not given)	i	-10	-6	-9	-2	11	1	-9
COc1cccc(N2C(=NC(=O)CCC3CCCC3)SC3CS(=O)(=O)CC32)c1 (stereo not given)	i	-3	-15	-14	0	6	6	1
COc1ccc(CNCc2cc3c(C(C)(C)C)nn(-c4ccccc4)c3[nH]c2=O)cc1	i	-11	-9	2	15	.	-7	2
Cc1ccc(C)c(S(=O)(=O)N2CCN(Cc3ccc(O)c4ncccc34)CC2)c1	i	0	.	18	-15	28	5	-12
CN1CCN(CC(=O)N2c3ccccc3C(=O)Nc3cccnc32)CC1	i	3	.	3	.	.	12	.
CCOC(=O)c1ccc(NC(=O)CSc2nnc(CNC(=O)c3ccccc3F)o2)cc1	i	-4	-19	3	-3	.	-4	0
Cc1nn(C)c(C)c1CCC(=O)N1CCCC(Nc2ccc(C(C)C)cc2)C1 (stereo not given)	i	21	-24	-17	-1	-6	7	2
CCC(C)(C(=O)NC1CCCC1)N(Cc1cccs1)C(=O)Cc1cccs1 (stereo not given)	i	-4	-5	4	-9	.	-10	-6
O=C(CN1C(=O)NC2(CCCCC2)C1=O)Nc1ccc2[nH]c(=O)[nH]c2c1	.	.	-11	.	0	8	1	1
COc1ccc(OC)c(Nc2nc(-c3ccncc3)nc3ccccc23)c1	i	-2	-7	-5	-14	27	42	-5
O=C(N/N=C/c1ccncc1)c1nn(Cc2ccccc2)c(=O)c2ccccc12	i	1	.	-14	4	-4	-10	1
O=C(CSc1nnc2ccccn12)NNC(=O)c1ccc(F)cc1	i	5	.	-2	-10	-8	2	-4
CCOc1ccc(-c2cc(C(=O)NCC3CCCO3)c3ccccc3n2)cc1 (stereo not given)	i	6	.	5	6	5	-12	2
Cc1ccc(-n2[nH]c(C)c(C=NC34CN5CN(CN(C5)C3)C4)c2=O)cc1C	i	4	9	-5	-2	.	25	-3
O=C1CN(c2ccc(F)cc2)C(=S)N1c1ccccc1	i	-3	-11	1	1	-2	6	2
N#Cc1c(C(F)(F)F)cc(-c2ccco2)nc1SCc1ccccn1	i	40	-19	38	-341	.	-15	3
O=C(Nc1ccc2nsnc2c1)c1cccs1	i	-17	-24	-16	-11	-203	5	-3
CS(=O)(=O)N1CCCC(C(=O)Nc2ccc(F)cc2)C1 (stereo not given)	i	4	-15	20	-3	-3	-18	-1
CN1CCC(C2(O)c3ccccc3CCc3ccccc32)CC1	i	8	-9	0	-6	.	-3	3
COc1cccc(CC2(CO)CCCN(Cc3ccc(CN4CCCCC4)s3)C2)c1 (stereo not given)	.	6	.	-7	1	-5	62	-1
O=C(CN1CCCC1)NCc1ccccc1	i	-12	-17	-2	1	14	9	2
O=C(Nc1nc2ccccc2[nH]1)c1cc(F)cc(F)c1	i	4	-24	-2	6	-64	6	0
O=C1OCCC1Sc1nnc(-c2ccccc2Cl)n1Cc1ccccc1 (stereo not given)	i	-5	.	-4	-1	10	-4	1
Cc1ccc(-n2c(SCC(=O)N3CCN(c4ccccn4)CC3)nnc2N2CCCC2)cc1	.	.	-21	.	-4	.	-17	-1
NS(=O)(=O)c1ccc(NC(=S)Nc2ccc(S(=O)(=O)N3CCCC3)cc2)cc1	i	1	.	11	1	-8	-11	2
CCCc1ccc(-c2cc(NC(=O)CSc3nnc(N)s3)n(-c3ccccc3)n2)cc1	i	-5	0	-9	4	i	85*	0

Random excerpt: 2 entries already listed, in no set order.
SMILES	Rce1 inh	PABP FP inh	UUG fidelity	eIF4H FP inh	MT1-MMP act inh	HIV Env fusion	CSC inhib	MT1-MMP act inh RFP
CCS(=O)(=O)N1Cc2ccccc2CC1C(=O)Nc1nc2ccc(C)cc2s1 (stereo not given)	i	-4	-18	5	-1	.	19	-8
O=C(Nc1ccc2nsnc2c1)c1cccs1	i	-17	-24	-16	-11	-203	5	-3

In the list so far, these have a COOH group:
SMILES	Rce1 inh	PABP FP inh	UUG fidelity	eIF4H FP inh	MT1-MMP act inh	HIV Env fusion	CSC inhib	MT1-MMP act inh RFP
O=C(O)c1ccccc1CSc1nnnn1-c1ccccc1	i	-8	-14	-4	0	11	-9	0
Cc1csc(NC(=O)C2C3C=CC(O3)C2C(=O)O)n1 (stereo not given)	i	11	-15	2	1	-60	5	4

Entries of single compounds as entered above:
Results for CN1CCN(CC(=O)N2c3ccccc3C(=O)Nc3cccnc32)CC1 → Rce1 inh: i; PABP FP inh: 3; UUG fidelity: .; eIF4H FP inh: 3; MT1-MMP act inh: .; HIV Env fusion: .; CSC inhib: 12; MT1-MMP act inh RFP: .
Results for Cn1c(SCC(N)=O)nnc1C1CCN(C(=O)NC2CCCCC2)CC1 → Rce1 inh: i; PABP FP inh: 8; UUG fidelity: -3; eIF4H FP inh: 2; MT1-MMP act inh: 5; HIV Env fusion: -42; CSC inhib: 11; MT1-MMP act inh RFP: 6

Only part of the results is shown, so the mix of outcomes need not match the whole.
